# STK33 inh – inhibitors of purified STK33 kinase, primary screen, biochemical, ADP-Glo luminescence, homogeneous, cell-free; Serine/threonine-protein kinase 33 (Homo sapiens), Q9BYT3; 0.073% of 320,000 active; inhibition, % at 10 µM; MBP phosphorylation;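 active = inhibition at or above 25%, using the most active replicate where run in duplicate; inactive = inhibition below 25%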
# Target sequence (Q9BYT3 whole entry, looked up): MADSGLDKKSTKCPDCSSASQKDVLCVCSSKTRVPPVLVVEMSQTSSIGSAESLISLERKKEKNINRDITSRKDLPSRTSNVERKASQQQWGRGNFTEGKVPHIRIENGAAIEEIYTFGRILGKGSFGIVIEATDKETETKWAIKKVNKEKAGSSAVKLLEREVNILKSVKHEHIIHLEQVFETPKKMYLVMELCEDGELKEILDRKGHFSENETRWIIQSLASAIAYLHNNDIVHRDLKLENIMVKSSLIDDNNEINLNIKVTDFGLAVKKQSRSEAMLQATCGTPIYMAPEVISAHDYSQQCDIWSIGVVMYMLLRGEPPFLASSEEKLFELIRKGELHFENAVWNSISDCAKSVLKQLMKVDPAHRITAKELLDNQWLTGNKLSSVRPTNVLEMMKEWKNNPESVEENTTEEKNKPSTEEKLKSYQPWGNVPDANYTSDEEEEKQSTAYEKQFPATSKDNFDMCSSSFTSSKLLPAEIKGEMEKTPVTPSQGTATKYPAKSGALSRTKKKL
# * = called active by the depositor. These rows are one share of the data, and most or all hits are left out here.
SMILES,STK33 inh
CCOC(=O)c1sc(N(Cc2ccccc2)C(=O)COC(=O)c2ccc(O)cc2)nc1C,-1.0
Cc1cnc(NC(=O)Nc2ccc(Cl)cc2)s1,-0.4
Cc1ccc(CNS(=O)(=O)c2cccc3nsnc23)cc1,-1.8
O=c1c2ccccc2ncn1CCCSc1ccc(Cl)cc1,-0.6
COc1cc(/C=N/NC(=O)c2cccnc2)ccc1OS(=O)(=O)c1ccc(C)cc1,-1.1
CCOC(=O)c1ccc(NC(=S)N2CCC(C(N)=O)CC2)cc1,-0.7
O=[N+]([O-])c1sccc1CS(=O)(=O)c1ccccc1,-1.1
CCCCOc1ccc(C2CCC(C(C)=O)C(C)C2)cc1 (stereo unspecified),-0.3
COc1ccc(-c2cc(C(=O)N3CCN(Cc4ccc5c(c4)OCO5)CC3)on2)cc1OC,-1.4
CC1CCCCC1NC(=O)C1CCC(CNS(=O)(=O)c2ccccc2)CC1 (stereo unspecified),-1.6
Cc1ccc(/C=C/C(=O)Nc2cc(=O)n(C)c(=O)n2C)o1,0.0
COC(=O)C1=C(C)N(Cc2ccc(C)cc2)C(=O)C1,0.7
Cn1nc(C(=O)NNc2c(F)c(F)cc(F)c2F)c2ccccc2c1=O,-0.9
NS(=O)(=O)c1ccc2nc(NC(=O)c3ccc(Br)o3)sc2c1,-2.0
Cc1cc(Cl)ccc1N1C(=O)CC(SCCC(=O)O)C1=O (stereo unspecified),0.2
COc1ccc(C(=O)N2CCC3(CC2)NCCc2[nH]cnc23)cc1OC,-2.2
CC(=O)N1CCc2cc(S(=O)(=O)NCC(=O)NCc3ccc(Cl)cc3)ccc21,0.8
Cc1ccccc1C(=O)N(C)c1ccccc1C(=O)NCc1ccccc1,-0.6
COc1ccc(N2CC(C(=O)N3CCCC(C)C3)CC2=O)cc1 (stereo unspecified),-0.8
CCNC(=S)N1CCn2c(nc3ccccc32)C1,-1.9
CCOc1cc(S(=O)(=O)NCC2OCCc3ccccc32)c(OCC)cc1-n1cnnn1 (stereo unspecified),-1.6
NNC(=O)CCN1CCN(C(c2ccccc2)c2ccccc2)CC1,-1.9
O=S(=O)(Nc1cccc(CO)c1)c1cccs1,-24.0
N#Cc1c(NC(=O)c2ccccc2)sc2c1CCCCC2,-1.4
S=C(NCCc1ccccn1)NC1CC2CCC1C2 (stereo unspecified),-1.0
CN(C)CCC1CCN(c2cc(C#N)c(C#N)cc2[N+](=O)[O-])CC1,-0.2
CCOC(=O)c1cc(NC(=O)c2ccc(Cl)cc2)c(=O)oc1-c1ccccc1,0.4
O=C(CSc1nnc(NC(=O)c2ccco2)s1)Nc1ccccc1Br,-0.9
CCOC(=O)N1CCN(C(=O)c2ccc(-n3c(C)ccc3C)cc2)CC1,-0.7
O=C(CN1C(=O)c2ccccc2C1=O)N1CCN(c2ccccc2)CC1,-1.4
COc1cccc(/C=C2\SC(=O)N(CCC(=O)N3CCC(C(=O)O)CC3)C2=O)c1,-1.4
c1ccc2c(c1)CCN(c1nc3cc4c(cc3s1)OCCO4)C2,-0.2
COc1ccc(CCNC(=O)CCc2ccsc2)cc1OC,-0.6
Cc1onc(-c2ccccc2)c1C(=O)OCC(=O)N1CCN(c2ccccc2)CC1,-1.5
COc1ccc(OC)c(/C=C2\Oc3cc(OCC(=O)N4CCC[C@H]4C(=O)O)ccc3C2=O)c1,1.8
COc1ccc(CCN2C(=O)CSC2=Nc2ccc(C)cc2C)cc1OC,-2.6
CCCOc1ccc(C(C)=O)cc1CC(C(=O)OCC)C(=O)OCC,0.5
COCCCN1C2=C(C(=O)CC(C)(C)C2)C(c2ccc(O)c(OC)c2)C2=C1CC(C)(C)CC2=O,0.8
Clc1ccc(C2CSc3c4ncnc-4ncn32)cc1 (stereo unspecified),-3.5
CCN(CC)S(=O)(=O)c1cccc(C(=O)NCC(c2ccccc2)N(C)C)c1 (stereo unspecified),0.6
CCOCC(=O)Nc1c(C(=O)Nc2ccccc2OC)oc2ccccc12,-0.8
CCN1CCN(c2nc3c(c(=O)[nH]c(=O)n3C)n2Cc2ccccc2)CC1,-1.0
COc1ccc(Oc2ccc3c(C(F)(F)F)cc(C(F)(F)F)nc3n2)cc1,0.5
O=C1CCN=C(Nc2ccc(F)cc2)N1Cc1ccccc1,-0.4
Cc1ccc(-c2nnc(SCC(=O)N/N=C/c3c(C)nn(-c4ccccc4)c3C)n2-c2ccc(C)cc2)cc1,-2.2
Cc1nn(Cc2ccc(Cl)cc2Cl)c(C)c1NC(=O)Cn1nc([N+](=O)[O-])c(Cl)c1C,-1.7
O=C(C1CCN(S(=O)(=O)c2ccc(Br)s2)CC1)N1CCCCC1,-0.1
CC(=O)NC(Cc1ccccc1)C(=O)NC1CCN(C(=O)NC2CCCCC2)CC1 (stereo unspecified),1.3
Cc1ccc(Sc2c(C)nn(C(=O)c3cccc(S(=O)(=O)N4CCOCC4)c3)c2C)cc1,-1.3
O=[N+]([O-])c1ccc2c(c1)C(O)n1ncnc1S2 (stereo unspecified),-1.7
# Continued.
SMILES,STK33 inh
CCOc1ccc(OCCSc2nc(-c3ccccc3)cc(=O)[nH]2)cc1,-1.5
CCNc1nc(NCC)n2c(SC(C(=O)Nc3cc(Cl)cc(Cl)c3)c3ccccc3)nnc2n1 (stereo unspecified),-2.6
COc1ccc(C(=O)NNC(=O)Cn2nnc(-c3ccc(OC)c(OC)c3)n2)cc1,-2.1
CCC1CC(C(=O)Nc2ccccc2)C(=O)O1 (stereo unspecified),-0.3
O=C(c1ccncc1)N1CCN(S(=O)(=O)c2cccc(Cl)c2)CC1,0.0
CCCCOC(=O)c1ccc(NC(=O)COC(=O)C2CSC3(C)CCC(=O)N23)cc1 (stereo unspecified),-0.5
COc1ccc(N(C(=O)CNC(=O)c2ccco2)C(C(=O)NC2CCCCC2)c2cccnc2)cc1 (stereo unspecified),-1.5
CCOC(=O)c1oc2ccccc2c1NC(=O)Cc1cccs1,-0.2
Cc1noc(C)c1COc1cccc(C(=O)Nc2ccc(C#N)cc2)c1,-1.8
O=C(CSCc1ccc(Cl)cc1)N1CCOCC1,0.2

# Gathered by group: the compounds so far with bromine.
SMILES,STK33 inh
NS(=O)(=O)c1ccc2nc(NC(=O)c3ccc(Br)o3)sc2c1,-2.0
O=C(CSc1nnc(NC(=O)c2ccco2)s1)Nc1ccccc1Br,-0.9
O=C(C1CCN(S(=O)(=O)c2ccc(Br)s2)CC1)N1CCCCC1,-0.1

# Going on with the list.
SMILES,STK33 inh
Cc1c(N=C2C(=O)Nc3ccccc32)c(=O)n(-c2ccccc2)n1C,1.0
COC(=O)C(O)(CC(=O)Nc1cccc(SC)c1)C(F)(F)F (stereo unspecified),-3.2
CCCNC(=O)CCc1c(C)nc2nc(-c3cc(OC)cc(OC)c3)nn2c1C,-2.5
CCC(=O)NNc1nc2c(C)cc(C)cc2s1,-0.1
N#CCSc1nnc(COc2cccc3ccccc23)n1-c1ccccc1,-1.3
CC1CCN(S(=O)(=O)c2ccc(NC(=S)NC(=O)c3ccc(Cl)cc3)cc2)CC1,-5.4
COC(=O)c1sc(SC)c(S(=O)(=O)C(C)C)c1N,-2.1
Cc1ccc([N+](=O)[O-])cc1NC(=O)CSc1nncn1-c1ccccn1,-0.6
O=C(O)Cc1ccc(C(=O)c2ccccc2)s1,-2.0
CCOc1ccc(CN2CCNC(=O)C2CC(=O)NCCC2=CCCCC2)cc1 (stereo unspecified),-1.1
Cc1nc2nc(COc3ccccc3)[nH]n2c(=O)c1Cc1ccccc1,0.2
O=C(CSc1nc2ccccc2c(=O)[nH]1)c1cccs1,1.0
CCN(CC)CC(=O)NN=C(c1ccccc1)c1ccccc1,-1.7
O=C(CN1CCCc2ccccc21)N1CCc2ccccc21,0.8
CCCCN(CC)C(=O)c1cc2c(=O)[nH]c3ccc(C)cc3c2s1,-3.5
Cc1ccc(-c2nc(C(=O)NC3CCCCCC3)no2)cc1,2.3
CC1=NNC(=O)C1CC(=O)N/N=C/c1ccc(C)o1 (stereo unspecified),-1.0
COc1ccc(S(=O)(=O)Nc2cc3c(cc2C(C)=O)OCO3)cc1,-1.0
Cn1c(SCc2ccc(Cl)cc2)nc(C(F)(F)F)cc1=O,2.0
O=C(Nc1ccc(F)cc1F)C1CCN(C(=O)c2ccc(Br)cc2)CC1,-2.8

# The final two compounds of the part before come first, to join the parts:
SMILES,STK33 inh
Cn1c(SCc2ccc(Cl)cc2)nc(C(F)(F)F)cc1=O,2.0
O=C(Nc1ccc(F)cc1F)C1CCN(C(=O)c2ccc(Br)cc2)CC1,-2.8
O=C(c1cc(-c2cccc(O)c2)on1)N1CCCC1,1.1
CCN(CCO)Cc1csc2ccc(Cl)cc12,-0.1
Nc1ccc(C(=O)N/N=C\C=C\c2cccc([N+](=O)[O-])c2)cc1,-0.9
CCC1Oc2ccccc2N(CC(=O)NCCCN2CCCC2)C1=O (stereo unspecified),-0.4
O=C(Nc1ncc(Cl)cn1)c1cccs1,5.0
O=C(Nc1ccc2c(c1)OCO2)N1CCN(c2ccc(F)cc2)CC1,-1.7
Cn1cc(Cl)c(/C=C(\C#N)S(=O)(=O)c2ccccc2)n1,-0.4
O=c1cc(O)c(-c2ccc(Cl)c(Cl)c2)c(Cl)[nH]1,-0.1
C=C(C)[C@@H]1CC[C@]2(C(=O)O)CC[C@]3(C)[C@H](CC[C@@H]4[C@@]5(C)CC[C@H](O)C(C)(C)[C@@H]5CC[C@]43C)[C@@H]12,-4.1
COc1ccc(OC)c(NC(=O)Cn2nc(C)c3ccccc3c2=O)c1,-0.7
CC(NC(=O)c1cc(Br)ccc1Br)c1ccccc1 (stereo unspecified),-0.6
COc1ccc(/C=C(/C#N)C(=O)Nc2cccnc2)cc1OC,-1.4
COc1ccc(C2C([N+](=O)[O-])=C(C)N(C)C(=O)N2C)cc1OC (stereo unspecified),1.1
Cc1ccccc1CN1CCCC(C(=O)Nc2ccccc2Oc2cccnc2)C1 (stereo unspecified),0.2
OC(CNc1ccccc1)COc1ccc(OCC(O)CNc2ccccc2)cc1 (stereo unspecified),-1.3
Cc1ccc(CNC(=O)CN2CCN(Cc3ccc(Cl)cc3)C2=O)cc1,-0.4
CCc1ccc(C(=O)Nn2c(C)nc3ccccc3c2=O)cc1,-0.5
COc1ccnc2c1c(=O)n(Cc1c(F)cccc1Cl)c(=O)n2C,5.7
CCOC(=O)Cn1cnc2c(cnn2-c2ccc(OC)cc2)c1=O,-1.7
N#CCOc1ccc(C2=NO[C@@H]3[C@@H]4C[C@@H]([C@H]5C(=O)N(c6ccc7c(c6)OCO7)C(=O)[C@@H]45)[C@H]23)cc1,-0.5
C/C(CC(=O)Nc1ccc(N(C)C)cc1)=N\NC(=O)c1ccc(F)cc1,-1.0
CC#CCCCC(=O)Nc1cccc(C(=O)O)c1,-0.7
C=CCn1c(CSCc2ccccc2)nnc1SCC(=O)NCc1ccccc1,-0.4
CC(OC(=O)CN1C(=O)C2CC=CCC2C1=O)C(=O)Nc1ccc(F)cc1Cl (stereo unspecified),-2.3
Cn1c(=O)n(C)c2cc(S(=O)(=O)Nc3ccccc3O)ccc21,0.3
C/C(=N\OCC(=O)OCC(=O)NC(=O)c1ccc(OC(F)F)cc1)c1ccc2c(c1)OCO2,-1.5
O=C(O)c1cccc(NC(=S)N/N=C/c2ccccn2)c1,-0.3
Cc1cc(C)n(-c2ccc(Cl)c(C(=O)OCC(=O)N3CCCCC3C)n2)n1 (stereo unspecified),-1.2
Cc1c(C(=O)Nc2ccccc2[N+](=O)[O-])csc1-c1ccccc1,-0.7
CCOC(=O)c1c(N)nn(C(=O)C(C)C)c1-c1ccccc1,-0.3

# Entries shown so far with a furan ring, fused or not (seven):
SMILES,STK33 inh
Cc1ccc(/C=C/C(=O)Nc2cc(=O)n(C)c(=O)n2C)o1,0.0
NS(=O)(=O)c1ccc2nc(NC(=O)c3ccc(Br)o3)sc2c1,-2.0
O=C(CSc1nnc(NC(=O)c2ccco2)s1)Nc1ccccc1Br,-0.9
CCOCC(=O)Nc1c(C(=O)Nc2ccccc2OC)oc2ccccc12,-0.8
COc1ccc(N(C(=O)CNC(=O)c2ccco2)C(C(=O)NC2CCCCC2)c2cccnc2)cc1 (stereo unspecified),-1.5
CCOC(=O)c1oc2ccccc2c1NC(=O)Cc1cccs1,-0.2
CC1=NNC(=O)C1CC(=O)N/N=C/c1ccc(C)o1 (stereo unspecified),-1.0

# The list goes on.
SMILES,STK33 inh
CC(CCc1ccc(O)cc1)N1CCC(Oc2ccc(C(=O)N3CCCC3)cc2)CC1 (stereo unspecified),0.3
Cc1ccccc1OCC(=O)Nc1cccc(N(C)S(C)(=O)=O)c1,-0.6
CN(C)c1ccc(N2C(=O)CC(Nc3ccc(N4CCOCC4)cc3)C2=O)cc1 (stereo unspecified),-0.9
OCC1(CCOc2ccccc2)CCN(Cc2cccn2-c2ncccn2)CC1,-0.3
Cc1ccc(S(=O)(=O)N2CN(CC3CCCO3)c3nc4ccccc4nc32)cc1 (stereo unspecified),0.9
COc1ccc(/C=C2/N=C(c3cccs3)OC2=O)cc1OC(C)C,-1.2
O=C(COc1ncnc2ccccc12)NCc1ccc2c(c1)OCO2,-0.3
O=C(CCC(=O)NNC(=O)COc1ccc(Br)cc1Br)NCc1ccccc1,-1.0
CCOc1ccc(N2CC(C(=O)Nc3cc(C)on3)CC2=O)cc1 (stereo unspecified),-0.5
S=C1N[C@H]2CCCC[C@@H]2N1,-3.5
Cc1ncccc1C(=O)N1CCCC(CCC(=O)N2CCN(c3ccccn3)CC2)C1 (stereo unspecified),-0.8
COCC(C)NC(=O)c1cc(-c2ccc(OC)c(OC)c2)on1 (stereo unspecified),-0.4
CCCCCc1c2c(cc(O)c1C(=O)O)OC(=O)c1c(cc(OC)cc1C(=O)CCCC)O2,-2.7
CCC(=O)c1ccc(/C=C/c2nc3ccccc3n2C)o1,-0.3
COc1ccc(CNCCNC(=O)c2ccco2)c(OC)c1OC,-1.3
CCc1cccc(C)c1NC(=O)Cc1ccsc1,0.4
CNC(=O)c1ccc(N(Cc2ccccc2)S(C)(=O)=O)cc1,-1.1
COc1ccc(CNC(=O)N2CCN(c3ccccc3)CC2)cc1,-0.1
CC1(C)CC2CC(C)(CN2S(=O)(=O)c2ccc(C(=O)Nc3ccc(S(=O)(=O)N4CCOCC4)cc3)cc2)C1 (stereo unspecified),-1.9
Cc1ccccc1NC(=O)Cn1nc(-c2ccccc2)nc1-c1ccccc1,0.4
CC(C)N1C(=O)NC2(c3ccccc3)N(C)C(=O)N(C)C12c1ccccc1 (stereo unspecified),-2.0

# From PubChem
